Screens deposited in PubChem BioAssay by National Center for Advancing Translational Sciences (NCATS).
Sfp inh: qHTS Assay for Inhibitors of Bacillus subtilis Sfp phosphopantetheinyl transferase (PPTase); Biochemical Sfp PPTase activity, qHTS; Potency, µM, without a hit: max response, negative = inhibition, usual class: inhibitors; actives 3.5% (n = 310,000); active means well fitted inhibition curve with a large enough effect; inconclusive means small, poorly fitted or top-dose-only effect, or another doubt; inactive means no such curve, though single readings can be large or run the other way;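 further: the enzyme is Sfp with the accession as filed and its product quenches rhodamine fluorescence; potency means the concentration at half of the fitted maximal effect; 0% = enzyme reaction without inhibitor and -100% = no enzyme wells; top concentration of the series not given in the record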
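Fluorescence-quenching assay: 15 nM Sfp-PPTase preincubated 15 min at room temperature with compound, then 5 uM rhodamine-CoA and 12.5 uM BHQ-2-labelled YbbR peptide added. Fluorescence (ex 525/em 598 nm) read at start and after 30 min; difference gives rate.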
D2 PAM: Beta-Arrestin HTS for Positive Allosteric Modulators of the Human D2 Dopamine Receptor: Potentiators; DiscoveRx D2 beta-arrestin cells, luminescence, 90 min; 100% = 57 uM dopamine signal; AID 624464, 2012; potentiation, % (concentration not given with the values); actives 0.23% (n = 360,000); active = potentiation of 50% or more; inconclusive = 30% to 50%; inactive = 30% or less;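 further: compound concentration not given in the record; tested on top of an EC20 dose of dopamine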
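PathHunter beta-arrestin assay in DiscoveRx D2 cells. Compounds were added with an EC20 of dopamine (50 nM final) for 90 min at 37 deg C. Luminescence was read 1 h after detection reagent, with 57 uM dopamine as the EC100 control.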
gsp antag: qHTS for Antagonists of gsp, the Etiologic Mutation Responsible for Fibrous Dysplasia/McCune-Albright Syndrome: qHTS; gsp-mutant cells, cAMP HTRF, 30 min; control for the full effect not named in the record; Potency, µM (top dose mostly 76.9 µM), inactives show at the highest dose activity change, negative = inhibition, usual class: inhibitors; actives 0.4% (n = 340,000); active = falling curve of any shape with a large fitted effect; inconclusive = falling curve, mostly with a smaller effect; inactive = flat or rising curve; cell line not stated here;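 further: intracellular cAMP measured with PDE inhibitor Ro 20-1724 present during compound exposure; potency means the concentration at half of the fitted maximal effect; on the % scale 0 is the no-effect control and ±100 the full control effect; nearly all actives have a fitted effect of over 65% in size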
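G418-selected cells were plated in DMEM/10% FBS for 16-24 h at 37C, then treated with compounds plus the PDE inhibitor […] (300 uM solution added) for 30 min at 37C. Intracellular cAMP was measured by HTRF after 30 min lysis at room temperature.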
Menin-MLL FL inh: qHTS Assay for Inhibitors Targeting the Menin-MLL Interaction in MLL Related Leukemias: Competition With Fluorescein Labeled MLL-derived Peptide; Fluorescence polarization, fluorescein-MLL peptide displacement from menin; FP activity change, % at 61.4 µM; 290,000 tested, under 10 active; inconclusive = falling polarisation curve, or a change in total fluorescence; inactive = total fluorescence flat and polarisation flat or rising; no compound was filed as active; the % refers to the polarisation; negative = inhibition;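 further: % of control where 0% means no effect; inhibitors lower the polarisation; unlabelled MLL peptide was the positive control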
gsp ag: qHTS for Agonist of gsp, the Etiologic Mutation Responsible for Fibrous Dysplasia/McCune-Albright Syndrome: qHTS. actives 0.13% (n = 340,000). Potency, µM (titrated, usually from 76.9 µM), for the others: at the top dose activation (cAMP increase), usual class: activators. gsp mutant cells, cAMP HTRF, 30 min; control for the full effect not named in the record; active = well fitted activation curve with a large enough effect; inconclusive = small, poorly fitted or top-dose-only effect, or another doubt; inactive = no such curve, though single readings can be large or run the other way; cell line not stated here;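 further: phosphodiesterase inhibitor Ro 20-1724 added with compounds to block cAMP breakdown; potency means the concentration at half of the fitted maximal effect; nearly all actives have a fitted effect of over 60% in size; about a fifth of the inactives were tested at one dose only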
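Cells stably selected in G418 were plated at 2000/well, grown 16-24 hr, then given compounds in DMSO with the PDE inhibitor […] (300 uM solution added) for 30 min at 37C; cAMP was read by HTRF.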
TRPV1 potentiator: HTS Assay for Compounds that Act as Potentiators of the Vanilloid Receptor 1; Transient receptor potential cation channel subfamily V member 1 (Homo sapiens), Q8NER1; TRPV1-expressing cells, Fluo-8 calcium influx, capsaicin EC20 potentiation; host cell line not named in the record; control for the full effect not named in the record; potentiation, % at 8.33 µM; actives 0.02% (n = 320,000); active means potentiation above 80%; inconclusive means 30% to 80%; inactive means below 30%; further: 0% is about no effect
Target sequence (Q8NER1 whole entry, looked up): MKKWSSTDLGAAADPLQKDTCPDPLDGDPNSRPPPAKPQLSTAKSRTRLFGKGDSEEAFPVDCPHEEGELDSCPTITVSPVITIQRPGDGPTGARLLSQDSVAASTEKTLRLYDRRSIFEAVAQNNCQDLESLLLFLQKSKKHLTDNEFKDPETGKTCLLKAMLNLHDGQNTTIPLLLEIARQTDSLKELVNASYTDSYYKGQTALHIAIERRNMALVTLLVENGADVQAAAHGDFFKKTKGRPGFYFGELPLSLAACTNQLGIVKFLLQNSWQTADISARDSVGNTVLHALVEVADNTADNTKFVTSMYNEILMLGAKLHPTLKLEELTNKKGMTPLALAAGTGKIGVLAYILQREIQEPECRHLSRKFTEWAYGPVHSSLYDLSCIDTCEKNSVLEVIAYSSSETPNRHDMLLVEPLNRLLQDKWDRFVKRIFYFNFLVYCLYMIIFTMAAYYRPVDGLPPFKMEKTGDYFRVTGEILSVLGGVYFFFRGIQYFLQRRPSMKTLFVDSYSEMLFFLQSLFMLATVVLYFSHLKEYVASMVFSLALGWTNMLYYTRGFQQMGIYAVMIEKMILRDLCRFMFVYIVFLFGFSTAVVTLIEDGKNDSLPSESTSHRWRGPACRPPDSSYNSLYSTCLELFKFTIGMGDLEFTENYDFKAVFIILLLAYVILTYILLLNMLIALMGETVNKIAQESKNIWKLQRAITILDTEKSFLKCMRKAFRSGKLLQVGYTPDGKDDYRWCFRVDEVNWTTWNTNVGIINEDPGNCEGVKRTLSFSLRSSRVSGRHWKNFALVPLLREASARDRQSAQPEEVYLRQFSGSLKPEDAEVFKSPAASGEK
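Fluo-8 calcium influx in TRPV1-expressing cells, kinetic read (ex 480/em 520 nm). Compound added and read 3 min for agonist activity, followed by capsaicin at EC20 final and 2 min further read for enhancement.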
ClpP mod: qHTS Assay for Activators of ClpP | ATP-dependent Clp protease proteolytic subunit (Bacillus subtilis (strain 168)), P80244 | purified B. subtilis ClpP, FRET peptide cleavage, 20 min | Potency, µM (titrated, usually from 57.5 µM), inactives show top-dose activity change, negative = active | actives 1.9% (n = 340,000); active = well fitted falling curve with a large enough effect; inconclusive = small, poorly fitted or top-dose-only effect; inactive = no such curve, though single readings can be large or run the other way; further: potency means the concentration at half of the fitted maximal effect; the source files actives as falling curves though it sought activators and does not explain the sign; nearly all actives have a fitted effect of over 65% in size; many hits overshoot -100%
Target sequence (P80244 whole entry, looked up): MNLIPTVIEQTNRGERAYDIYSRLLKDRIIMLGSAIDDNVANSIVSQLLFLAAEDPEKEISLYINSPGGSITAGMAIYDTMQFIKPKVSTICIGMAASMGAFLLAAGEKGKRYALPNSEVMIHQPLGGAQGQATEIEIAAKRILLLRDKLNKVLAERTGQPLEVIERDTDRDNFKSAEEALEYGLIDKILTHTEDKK
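Purified B. subtilis ClpP, 10 microg/mL final in Tris/HCl pH8 with KCl, BSA, glycerol and Tween-20, cleaved an Abz/nitrotyrosine-quenched decapeptide. Fluorescence (ex 320, em 430) was read at 0 and 20 min at room temperature. Delta was normalized to 5.8 microM ADEP and DMSO/no-enzyme controls.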
Active calls of the source: *; u = inconclusive; x = not tested or not shown; & = joins results of further samples; [ ] = another dose, or the depositor's remark.

SMILES	Sfp inh	D2 PAM	gsp antag	Menin-MLL FL inh	gsp ag	TRPV1 potentiator	ClpP mod
COc1ccc(C2CC(c3ccc(F)cc3)n3nc(NC(=O)c4ccco4)nc3N2)cc1 (stereo not given)	13%	-13	-18%	3.4	-10%	-2	0.1%
Cc1cccc(OCc2nnc(SCC(=O)Nc3cc(C)on3)n2C)c1	2%	-9	12%	7.0	u	15	-0.6%
CN(C)CCN(C(=O)c1cc(Cl)sc1Cl)c1nc2ccc(F)cc2s1	-4%	-32	6%	3.3	-29%[15.4 µM]	1	-12%
Cc1nn(Cc2ccc(Cl)cc2)c(C)c1NC(=O)c1c(-c2ccccc2)noc1C	-10%	-8	u	0.3	-13%	9	0.6%
CC(C)COc1cccc(C(=O)NNC(=O)C2COc3ccccc3O2)c1 (stereo not given)	10%	-7	4%	x	9%	-2	-2.2%
CCCCC(CC)c1nnc(NC(=O)c2cccs2)s1 (stereo not given)	9%	-15	-11%	1.6	2%	-16	-2.3%
Cc1ccc(C(=O)Nc2cc(=O)n(C)c(=O)n2C)o1	-10%	-15	11%	2.9	u	1	1.2%
O=C(CCSc1nc2ccccc2s1)N/N=C/c1c(O)ccc2ccccc12	u	-4	-8%	7.4	u	u	6.9%
Clc1ccc(C2Nc3cccc4cccc(c34)N2)c(Cl)c1	x	5	-19%	x	0%	x	x
CCOc1ccc(-n2ccnc(SCC(=O)NC3CCCC3)c2=O)cc1	x	12	-5%	x	2%[15.4 µM]	u	0.9%
CC(C)CN(C(=O)CN1CCN(S(=O)(=O)c2ccccc2)CC1)c1c(N)n(CC(C)C)c(=O)[nH]c1=O	5%	5	14%	5.3	u	19	-2.4%
CCOC(=O)c1cc(-c2ccccc2)n(CCC(=O)N2CCN(c3ccccn3)CC2)c1C	6%	-8	-4%	x	18%	2	-16%
O=S(=O)(c1ccc(NC(=S)Nc2ccccc2)cc1)N1CCOCC1	-21%	-14	9%	-3.1	-36%[inhibitor]	-3	0.3%
CC(C)(Cc1cccc(CC(C)(C)C(=O)O)c1)C(=O)O	21%	-8	5%	1.0	u	-8	2.3%
Cn1c(N)c(C(=O)COC(=O)c2cc(-c3ccco3)nc3ccccc23)c(=O)n(C)c1=O	13µM*	2	-5%	12&12	x	2	4.5%
CC(Oc1ccc2c3c(c(=O)oc2c1)CCC3)C(=O)NC1CCN(Cc2ccccc2)CC1 (stereo not given)	9%	-25	-11%	x	u	6	4.3%
O=c1cc(CO)oc(C(Nc2ccccn2)c2ccc(F)cc2)c1O (stereo not given)	10µM*	-4	-2%	1.6	14%	-12	1.6%
CC1CCCCC1NC(=O)CCN1C(=O)C2C3C=CC(C3)C2C1=O (stereo not given)	10%	2	8%	-1.5	-2%	-6	x
Cc1cc(NC(=O)/C=C/c2ccccc2)c(C(C)C)cc1O	5%	-5	-12%	3.3	-28%	6	-1.3%
CCOC(=O)c1ccc(NC(=O)CCC(=O)OC)cc1	-7%	-17	-14%[15.4 µM]	-2.9	-26%	9	0.8%
Cc1cccc2nc3ccccc3nc12	13%	1	-9%	-1.5	22%	-1	x
N#CCCN1CCN(C2=NC(=O)/C(=C\c3cccs3)S2)CC1	-8%	-6	-21%	7.3	0%[15.4 µM]	-8	0.2%
CC1CCCCN1C(=O)c1ccc(NC(=O)c2ccccc2Cl)cc1 (stereo not given)	18%	8	11%	1.4	u	5	-0.5%
CC1=C(C(=O)Nc2ccccc2C)C(c2ccc(C)o2)NC(=S)N1 (stereo not given)	-13%	11	-14%	1.2	-23%	5	-5.8%
Cc1cc([N+](=O)[O-])nn1CC(=O)c1ccccc1	24%	-10	0%	-1.4	15%	10	1.1%

The list continues.
SMILES	Sfp inh	D2 PAM	gsp antag	Menin-MLL FL inh	gsp ag	TRPV1 potentiator	ClpP mod
CN(C(=O)c1cccc([N+](=O)[O-])c1)c1ccccc1C(=O)NCc1ccccc1	15%	-6	10%	x	3%[15.4 µM]	3	0.4%
O=C(Nc1ccc(C(=O)N2CCN(c3ccc(F)cc3)CC2)cc1)C1=CSCCO1	6%	-6	-12%	1.1	42%	-11	-3.3%
CCOC(=O)C1(CCOc2ccccc2)CCN(Cc2ccc(COC)o2)CC1	13%	-15	6%	-3.7	23%	-3	x
CCN(CC)S(=O)(=O)c1ccc(NC(=O)COC(=O)c2cc(S(=O)(=O)Nc3ccc(OC)cc3)ccc2O)cc1	43%[activator]	-5	u	-1.6	0%[15.4 µM]	-10	0.5%
Cc1ccc(S(=O)(=O)N2CCOCC2)cc1C(=O)O	11%	-3	6%	-5.3	22%	-5	-0.1%
Cc1cccc(OCc2nc3ccccc3c(=O)n2N)c1	-6%	2	21%	1.9	-10%	-1	-0.2%
COc1ccccc1-c1nn(-c2ccccc2)cc1C(=O)NC1CC1	x	-8	5%	x	u	1	-2.4%
Cc1ccc(S(=O)(=O)Nc2ccsc2C#N)cc1	9%	-9	-9%	5.7	u	8	-4.2%
O=C(c1ccncc1)N1c2ccccc2Sc2ccccc21	15%	7	-15%	1.6	u	3	-0.4%
O=C(Nc1cccc(F)c1)Nc1ccnn1C1CCN(C(=O)c2cscn2)CC1	11%	-3	6%	2.2	0%	0	-2.2%
O=C(Cc1ccc(Cl)cc1)NNC(=O)C(=O)NC1CCCCC1	x	-3	5%	x	8%	x	x
CSc1nsc(SCC(=O)N2CCN(c3ccccc3)CC2)n1	-12%	-13	1%[15.4 µM]	-1.3	8%	19	-0.6%
Cc1cccc(N2CCC(N3CCN(C4CCCCC4)C(CCO)C3)CC2)c1C (stereo not given)	10µM*	-6	11%	7.4	-5%	-3	x
COc1ccc(/C=C2\SC(=S)N(CCCC(=O)N3CCN(C)CC3)C2=O)cc1	-4%	-11	-1%	2.2	-17%[15.4 µM]	0	x
O=C(COc1ccccc1-c1ccccc1)N/N=C/c1ccc2ccccc2c1	5%	3	38%[activator]	0.4	u	20	-20%
O=C(OCCCOC(=O)c1ccc([N+](=O)[O-])o1)c1ccc([N+](=O)[O-])o1	x	53*	9%	x	-24%	16	0.6%
Cc1ccccc1NC(=O)CCN1C(=O)CSC1=O	-9%	5	7%	-1.2	0%	-12	-2.3%
CC(=O)Nc1cccc(OCCCNS(=O)(=O)c2ccc(C#N)cc2)c1	17%	-6	6%	x	6%	11	-0.5%
COc1ccc(NC(=O)CN(c2ccc([N+](=O)[O-])cc2)S(=O)(=O)c2ccccc2)cc1	6%	-24	-18%	4.2	-49%[inhibitor]	9	0.9%
C=CCC[C@H](Cc1ccc(F)cc1)C(=O)OC[C@H](Cc1c[nH]c2ccccc12)NC(=O)[C@H](CC=C)CC(=O)N(CCO)Cc1ccccc1	x	3	-16%	x	-5%	x	-2.1%
COc1cccc(C2C(C(=O)OCc3ccccc3)=C(C)Nc3ncnn32)c1OC (stereo not given)	16%	-1	-14%	4.4	u	-27	1.8%
CCOC(=O)c1c(C)[nH]c(C(=O)OCC(=O)Nc2cc(Cl)ccc2OC)c1C	10%	-1	7%	-3.3	3%	7	-2.0%
O=C(CSC1=Nc2ccccc2C2CC=NN12)Nc1ccc(F)c(F)c1F (stereo not given)	x	-1	8%	x	8%	-5	-9.9%
Cc1ccc(S(=O)(=O)N(CCC(=O)N2CCOCC2)c2ccccc2)cc1	x	-3	2%	x	5%[15.4 µM]	-9	1.2%
CC(C)(C)n1cc(S(=O)(=O)c2ccccc2)[nH]c1=O	9%	-3	14%	-7.2	u	-4	x

Entries of single compounds as entered above. Values in the order: Sfp inh | D2 PAM | gsp antag | Menin-MLL FL inh | gsp ag | TRPV1 potentiator | ClpP mod
`C=CCC[C@H](Cc1ccc(F)cc1)C(=O)OC[C@H](Cc1c[nH]c2ccccc12)NC(=O)[C@H](CC=C)CC(=O)N(CCO)Cc1ccccc1` as listed: x | 3 | -16% | x | -5% | x | -2.1%
`CCOC(=O)C1(CCOc2ccccc2)CCN(Cc2ccc(COC)o2)CC1` as listed: 13% | -15 | 6% | -3.7 | 23% | -3 | x

Other compounds follow:
SMILES	Sfp inh	D2 PAM	gsp antag	Menin-MLL FL inh	gsp ag	TRPV1 potentiator	ClpP mod
COc1ccc(CC(=O)NC(C)c2nnc(SCc3nc4ccccc4c(=O)[nH]3)n2C)cc1 (stereo not given)	10%	-15	0%	6.7	16%	6	-0.5%
COc1ccc(NCc2cc(=O)oc3cc(NC(C)=O)ccc23)cc1	5%	-6	-12%	-1.2	16%[15.4 µM]	22	-0.6%
O=S(N1CCc2ccccc21)C12CC3CC(CC(C3)C1)C2 (stereo not given)	-11%	-6	u	-2.9	3%[15.4 µM]	2	x
CC(C)(C)NC(=O)CN(C(=O)Cn1nnc(-c2ccccc2F)n1)c1cccc2c1CCCC2	10%	-1	-15%	6.6	-2%	3	-1.1%
Cc1cc(C)c(C)c(S(=O)(=O)NCc2cccnc2)c1C	15%	-10	-9%	-0.7	-3%	-7	0.2%
Cc1cc2oc(=O)cc(Cn3ccnc3)c2cc1C	13%	4	5%	2.5	u	0	u
O=S(=O)(c1ccc2c(c1)OCCO2)N1CCC(c2nc3ccc(Cl)cc3[nH]2)CC1	13%	-3	-29%	0.1	4%	-3	-3.9%
COc1ccc(C=NNC(=O)CCCC(=O)NN=Cc2ccc(OC)c(O)c2)cc1O	x	-4	-4%	x	5%	x	-2.0%
Cc1c(C(=O)O)cccc1-c1ccc(/C=C2/NC(=O)N(c3ccccc3)C2=O)o1	-10%	-4	-8%	1.3	-43%[inhibitor]	0	-15%
COc1ccc(OC)c(Nc2cc(C)c3ccccc3n2)c1	-7%	-9	u	-2.6	-19%	3	-22%
Cc1ccc(NC(=S)NCc2ccc(S(N)(=O)=O)cc2)c(C)c1	10%	0	4%	2.2	0%[15.4 µM]	-2	x
